# Source: PubChem (National Center for Advancing Translational Sciences (NCATS))
# VACV mCherry inh: inhibitors of vaccinia virus infection (mCherry reporter signal). Potency, µM (doses to about 36.5 µM), for the others: at the highest dose activity change, negative = inhibition, most hits filed as inhibitors. Vaccinia virus mCherry reporter infection, fluorescence; about a quarter of the inactives have no number. AID 720579. actives 0.63% (n = 310,000); active = well fitted inhibition curve with a large enough effect; inconclusive = small, poorly fitted or top-dose-only effect; inactive = no such curve, though single readings can be large or run the other way; tested in A549 cells; also: nearly all actives have a fitted effect of over 35% in size; inactives centre near -10
# Vaccinia Venus: inhibitors of vaccinia virus (Venus reporter); actives 0.46% (n = 330,000); Potency, µM (series often up to 36.5 µM), without a hit: at the highest dose activity change, negative = inhibition, actives largely listed as inhibitors; Vaccinia virus Venus reporter expression, fluorescence; AID 720580; active means well fitted inhibition curve with a large enough effect; inconclusive means small, poorly fitted or top-dose-only effect; inactive means no such curve, though single readings can be large or run the other way; tested in A549 cells; also: nearly all actives have a fitted effect of over 30% in size; inactives centre near -10
# An asterisk follows results filed as active; i = inactive; ? = inconclusive; . = not tested or not shown; & = joins results of further samples; [ ] = remark or other dose. % is scaled to controls: 0 for no effect and ±100 for the full control effect; potency is read from the fitted curve at half-maximal effect.
nr | Compound | VACV mCherry inh | Vaccinia Venus
1 | COc1ccc(-n2nc([N+](=O)[O-])c(=NCc3ccco3)n2O)cc1 | -18% | -10%
2 | Cc1ccccc1CN1C(=O)C2(c3ccccc31)N(c1ccccc1)C(=O)CS2(=O)=O (stereo not drawn) | -20% | -14%
3 | O=C(Nc1ccccc1C(F)(F)F)c1ccc(CN2CCC(Cc3ccccc3)CC2)cc1 | . | ?
4 | COCc1cc(C)nc(OCC(=O)N/N=C/c2ccc(OC)c(OC)c2)c1C#N | ? | ?
5 | CN(C)C=NC(=O)c1cc(C(=O)c2ccc(F)cc2)c[nH]1 | i | -11%
6 | C/C(=N\NC(=O)C1(C)CC1(Br)Br)c1ccc(C)cc1C (stereo not drawn) | i | -17%
7 | CC1=NN(C(=O)c2ccc(Cn3cc(Br)c([N+](=O)[O-])n3)o2)C(O)(C(F)(F)F)C1 (stereo not drawn) | -5% | -14%
8 | COc1ccc(N(Cc2ccccc2)S(=O)(=O)c2cccc(C(=O)NCC3CCCO3)c2)cc1 (stereo not drawn) | -13% | -22%
9 | CCOC(=O)C1(c2ccccc2)CCN(CCc2ccc(NC(=O)CCC(=O)O)cc2)CC1 | -4% | 0%
10 | Cc1cc(O)c(C(C)C)cc1NC(=O)c1ccc(Cl)cc1 | . | -21%
11 | CN(C)c1ccc(/C=C2\C(Cl)=Cc3ccccc32)cc1 | 29% | -5%
12 | COc1cccc2sc(N(Cc3cccnc3)C(=O)Cc3ccccc3)nc12 | -5% | -8%
13 | COc1ccc(-c2nn(-c3ccc(F)cc3F)c3c2cnc2ccc(F)cc23)cc1 | -25% | -20%
14 | C=CCn1c(SCc2nc3ccccc3c(=O)[nH]2)nc2ccccc2c1=O | . | -9%
15 | COC(=O)c1ccc(COc2ccccc2/C=C(\C#N)C(=O)Nc2c(C)cccc2C)cc1 | -10% | -27%

# Single values from the entries so far:
# no. 6 – Vaccinia Venus = -17%
# no. 15 – Vaccinia Venus = -27%

# (list continues)
nr | Compound | VACV mCherry inh | Vaccinia Venus
16 | O=C(NCC1(N2CCOCC2)CCCCC1)c1cnn(-c2nccc(-c3ccco3)n2)c1C1CC1 | -7% | 0%
17 | O=C(CSc1nc2ccccc2n1Cc1ccccc1Cl)NCc1ccccc1 | -1% | -8%
18 | COc1ccc(NC(=O)C2(C)Cc3c(-c4cccc(C(F)(F)F)c4)ccnc3O2)cc1OC (stereo not drawn) | -12% | -14%
19 | NC(=O)c1ccsc1NC(=O)COC(=O)Cc1ccccc1[N+](=O)[O-] | i | -16%
20 | Cc1ccc(C)c(NC(=S)NC(NC(=O)Cc2cccc3ccccc23)C(Cl)(Cl)Cl)c1 (stereo not drawn) | ? | ?
21 | COc1cccc(C(=O)N2CCC[C@H]2C(=O)N2CCC[C@H]2C(=O)N[C@H](C)c2ccccc2)c1 | 8% | -1%
22 | CCOC(=O)c1cc(-c2ccccc2)n(CCCC(=O)Nc2ccc(C)cc2C)c1C | -1% | -10%
23 | CSCC[C@@H](CO)NC(=O)[C@H]1O[C@@H](n2ccc(=O)[nH]c2=O)[C@H](O)[C@@H]1O | 15% | -3%
24 | CCCCC(CC)CNC(=O)C1CC=CCC1C(=O)O (stereo not drawn) | -11% | -6%
25 | O=C(Nc1cccc(NC(=O)c2cccnc2)c1)c1cccnc1 | -1% | -1%
26 | Cc1ccc(C(=O)NCCSC(C)(C)C)cc1[N+](=O)[O-] | -3% | -8%
27 | COCCN1Cc2cccc(C(=O)NCCc3ccccc3)c2C1=O | i | 0%
28 | CCCSc1nc(NCc2ccco2)c2c3c(sc2n1)COC(C)(CC)C3 (stereo not drawn) | -13% | -7%
29 | Cc1nnc(NC(=O)CSc2nc(CC(C)C)nc3c2c(=O)n(C)c(=O)n3C)s1 | 0% | 1%
30 | COCCN(C(=O)COC(=O)c1ccco1)c1c(N)n(Cc2ccccc2)c(=O)[nH]c1=O | i | -5%
31 | COc1ccc(C)cc1N1C(=N)/C(=C2/Nc3ccccc3S2)C(c2ccccc2)C1=O (stereo not drawn) | -12% | -18%
32 | COc1ccc(-c2cnnn2-c2ccc(NC(=O)c3ccc(S(=O)(=O)N4CCCCC4)cc3)cc2)cc1 | i | -13%
33 | COc1ccc(C(C(=O)Nc2ccc3c(c2)OCO3)N(C)C(=O)Cc2c[nH]c3ccccc23)cc1 (stereo not drawn) | ? | -27%
34 | Cc1cc(C(O)c2ncc(-c3ccccc3)[nH]2)ccc1F (stereo not drawn) | 12% | 1%
35 | CCCCOC(=O)Cn1c(=O)n(CC(=O)OCCCC)c2cc(C)ccc21 | . | -9%
36 | COc1cc(C(=O)OCCN2CCOCC2)cc(OC)c1OC | -1% | -8%
37 | COc1ccc(-c2nc3c(=O)n(C)c(=O)[nH]c3n2CCc2ccccc2)cc1 | -8% | -10%
38 | CS(=O)(=O)N(CC(=O)NCCSCc1cccc(Cl)c1)c1ccc(F)cc1 | -24% | -11%
39 | COc1ccccc1-c1nc(CNC(=O)NC2CCCCC2)c(C)o1 | -7% | 5%
40 | O=C(SCc1c(O)c2ccccc2oc1=O)c1ccccc1 | -25% | -2%
41 | Cc1cc(NC(=O)C(C)SCC(=O)OC(C)C(=O)Nc2cccc(C#N)c2)no1 (stereo not drawn) | -18% | -14%
42 | COc1ccccc1NC(=O)CSc1nnc2c3ccccc3n(C(C)C)c2n1 | i | ?
43 | CCCCN1C[C@H](CSC)[C@@H](CC(=O)NC)C1=O | -15% | -9%
44 | COc1ccc(S(=O)(=O)NC2CC(=O)N(c3ccc(C)c(C)c3)C2)cc1C (stereo not drawn) | -8% | -27%
45 | O=C(CSc1nc2ccccc2n1Cc1ccc(Cl)cc1)N/N=C/c1ccccc1C(=O)O | ? | 6%

# Brought forward from above: two compounds; new compounds follow.
nr | Compound | VACV mCherry inh | Vaccinia Venus
44 | COc1ccc(S(=O)(=O)NC2CC(=O)N(c3ccc(C)c(C)c3)C2)cc1C (stereo not drawn) | -8% | -27%
45 | O=C(CSc1nc2ccccc2n1Cc1ccc(Cl)cc1)N/N=C/c1ccccc1C(=O)O | ? | 6%
46 | CCCS(=O)(=O)c1nc(S(=O)(=O)c2ccc(C)cc2)c(NCc2ccc3c(c2)OCO3)s1 | i | -4%
47 | CCCC/C(C)=N\NC(=O)CNS(=O)(=O)c1ccc([N+](=O)[O-])cc1 | . | 9%
48 | O=C(C[C@H]1C/C=C\CCC(=O)OC[C@H]2CCCN2C1=O)NCCO | 0% | 3%
49 | CC(C)c1nc(SCC(=O)N2CCCCC2)c2c(=O)n(C)c(=O)n(C)c2n1 | i | -15%
50 | Nc1cccc(S(=O)(=O)Nc2ccc(Br)cc2)c1 | -8%[7.34 µM] | -13%[7.34 µM]
51 | CCOc1cnc(-c2c(-c3c(Cl)cccc3Cl)noc2C)o1 | -9% | -18%
52 | Cc1ccc2nc3c(cc(C(=O)NCCc4ccccc4)c(=N)n3CCN3CCOCC3)c(=O)n2c1 | -1% | 1%
53 | O=C(NCCc1ccccc1)c1ccnc(/C=N/O)c1 | i | -11%
54 | CN(CC(=O)Nc1cccc(Cl)c1)C1=NS(=O)(=O)c2ccccc21 | i | -13%
55 | CC(NC(=O)CNC(=O)C1CCCCC1)c1ccc(S(N)(=O)=O)cc1 (stereo not drawn) | -1% | 0%
56 | O=c1[nH][nH]c2c1[C@H](CCc1cccc(Cl)c1)O[C@H](C1CCCC1)C2 | -3% | -14%
57 | COc1ccc(OC)c2[nH]c(=O)c(CCNC(=O)c3ccc(S(=O)(=O)N4CCCCC4)cc3)cc12 | -11% | -7%
58 | CCN(CC)S(=O)(=O)c1cccc(C(=O)NC2CCCCC2)c1 | -10% | -16%
59 | CCC1(c2ccccc2)NC(=O)N(C)C1=O (stereo not drawn) | -1% | -16%
60 | OC(CNc1nc(-c2cccnc2)nc2ccccc12)c1ccccc1 (stereo not drawn) | -23% | -23%
61 | CCCCNC(=O)c1ccccc1NC(=O)CN(c1ccccc1)S(=O)(=O)N(C)C | -4%&-14% | 4%&-15%
62 | Cc1ccc(/C=C/S(=O)(=O)NCC(=O)OCC(=O)N2CC(=O)Nc3ccccc32)cc1 | i[7.34 µM] | 0%[7.34 µM]
63 | O=c1c2cc(NC(=S)N3CCCCC3)ccc2nc2n1CCCCC2 | -1% | 3%
64 | O=C1CC2(CCN(C(=O)c3ccc(F)cc3)CC2)Oc2ccccc21 | -13% | -15%

# Entries 39 through 61 from above:
nr | Compound | VACV mCherry inh | Vaccinia Venus
39 | COc1ccccc1-c1nc(CNC(=O)NC2CCCCC2)c(C)o1 | -7% | 5%
40 | O=C(SCc1c(O)c2ccccc2oc1=O)c1ccccc1 | -25% | -2%
41 | Cc1cc(NC(=O)C(C)SCC(=O)OC(C)C(=O)Nc2cccc(C#N)c2)no1 (stereo not drawn) | -18% | -14%
42 | COc1ccccc1NC(=O)CSc1nnc2c3ccccc3n(C(C)C)c2n1 | i | ?
43 | CCCCN1C[C@H](CSC)[C@@H](CC(=O)NC)C1=O | -15% | -9%
44 | COc1ccc(S(=O)(=O)NC2CC(=O)N(c3ccc(C)c(C)c3)C2)cc1C (stereo not drawn) | -8% | -27%
45 | O=C(CSc1nc2ccccc2n1Cc1ccc(Cl)cc1)N/N=C/c1ccccc1C(=O)O | ? | 6%
46 | CCCS(=O)(=O)c1nc(S(=O)(=O)c2ccc(C)cc2)c(NCc2ccc3c(c2)OCO3)s1 | i | -4%
47 | CCCC/C(C)=N\NC(=O)CNS(=O)(=O)c1ccc([N+](=O)[O-])cc1 | . | 9%
48 | O=C(C[C@H]1C/C=C\CCC(=O)OC[C@H]2CCCN2C1=O)NCCO | 0% | 3%
49 | CC(C)c1nc(SCC(=O)N2CCCCC2)c2c(=O)n(C)c(=O)n(C)c2n1 | i | -15%
50 | Nc1cccc(S(=O)(=O)Nc2ccc(Br)cc2)c1 | -8%[7.34 µM] | -13%[7.34 µM]
51 | CCOc1cnc(-c2c(-c3c(Cl)cccc3Cl)noc2C)o1 | -9% | -18%
52 | Cc1ccc2nc3c(cc(C(=O)NCCc4ccccc4)c(=N)n3CCN3CCOCC3)c(=O)n2c1 | -1% | 1%
53 | O=C(NCCc1ccccc1)c1ccnc(/C=N/O)c1 | i | -11%
54 | CN(CC(=O)Nc1cccc(Cl)c1)C1=NS(=O)(=O)c2ccccc21 | i | -13%
55 | CC(NC(=O)CNC(=O)C1CCCCC1)c1ccc(S(N)(=O)=O)cc1 (stereo not drawn) | -1% | 0%
56 | O=c1[nH][nH]c2c1[C@H](CCc1cccc(Cl)c1)O[C@H](C1CCCC1)C2 | -3% | -14%
57 | COc1ccc(OC)c2[nH]c(=O)c(CCNC(=O)c3ccc(S(=O)(=O)N4CCCCC4)cc3)cc12 | -11% | -7%
58 | CCN(CC)S(=O)(=O)c1cccc(C(=O)NC2CCCCC2)c1 | -10% | -16%
59 | CCC1(c2ccccc2)NC(=O)N(C)C1=O (stereo not drawn) | -1% | -16%
60 | OC(CNc1nc(-c2cccnc2)nc2ccccc12)c1ccccc1 (stereo not drawn) | -23% | -23%
61 | CCCCNC(=O)c1ccccc1NC(=O)CN(c1ccccc1)S(=O)(=O)N(C)C | -4%&-14% | 4%&-15%

# Down the list, quoted from above.
# VACV mCherry inh for nos. 61 to 64 → -4%&-14%, i[7.34 µM], -1%, -13%
